Screening data (PubChem)
HNF4A DNA FP: change in binding of human HNF4 alpha to DNA; P41235; HNF4a-FITC DNA binding, fluorescence polarization, 1 h; activity change, % at 10 µM; 360,000 tested, 0.3% active; AID 1224865; in the data active = activity change above about 30%, passing the limit was not always enough;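 note: controls were the assay level and a saturating level of protein; the project sought stronger binding though the title names inhibitors; some compounds called inactive have numbers as strong as hits; positive values seem to mean higher polarization but the record does not say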
Target sequence (P41235 whole entry, looked up): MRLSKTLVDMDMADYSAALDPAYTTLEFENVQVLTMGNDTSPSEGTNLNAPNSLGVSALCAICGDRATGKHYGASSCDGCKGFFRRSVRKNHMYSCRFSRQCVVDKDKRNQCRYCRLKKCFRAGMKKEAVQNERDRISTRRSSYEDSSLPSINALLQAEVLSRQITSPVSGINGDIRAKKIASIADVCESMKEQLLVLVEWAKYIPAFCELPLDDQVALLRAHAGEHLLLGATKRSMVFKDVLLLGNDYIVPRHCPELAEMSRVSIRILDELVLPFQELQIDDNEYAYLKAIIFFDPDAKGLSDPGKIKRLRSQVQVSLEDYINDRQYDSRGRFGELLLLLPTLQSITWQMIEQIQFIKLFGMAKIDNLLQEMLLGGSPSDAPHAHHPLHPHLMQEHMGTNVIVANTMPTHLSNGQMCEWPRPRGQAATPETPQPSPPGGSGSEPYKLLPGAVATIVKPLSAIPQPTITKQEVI
FGF22 binding: FGF22 (human) thermal shift binding; recombinant FGF22 thermal shift, SYPRO orange fluorescence; percent of sucrose octasulfate shift, DMSO zero; calls only at 9.99 µM; 340,000 tested, 1.5% active; AID 651658;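 active = melting point raised past a set limit in the mean and every replicate; inconclusive = no clear call; three in four hits are not shown here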
Target sequence (Q9HCT0 whole entry, looked up): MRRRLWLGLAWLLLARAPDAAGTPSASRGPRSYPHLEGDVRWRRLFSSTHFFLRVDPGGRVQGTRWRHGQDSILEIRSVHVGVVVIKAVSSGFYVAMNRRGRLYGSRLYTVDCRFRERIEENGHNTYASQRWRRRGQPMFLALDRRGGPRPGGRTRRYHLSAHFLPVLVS
Ecoli growth: blocks Escherichia coli growth; OD600, 23 h; hits give low values; OD600 absorbance (concentration not given with the values); 330,000 tested, 0.21% active; AID 1053175;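 active = OD600 absorbance below the run mean of sample wells minus 3.6 SD, in any replicate, cut at about 0.56 in these data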;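 note: stock transfer was 300 nL into about 60 µL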
AF4-AF9 inh: MLL-AF4/AF9 protein interaction inhibition; AlphaScreen, biotin-AF4 peptide binding to FLAG-AF9; inhibition, % at 10 µM; 350,000 tested, 0.47% active;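 active = every replicate reaching a set inhibition limit, whatever the replicate mean, cut at about 25% in these data; inconclusive = mean inhibition reaches that limit but some replicates miss it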;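 note: 0% = plate neutral control median and 100% = total signal loss; the record names both 10 and 1 µM as test concentration; the first replicate is given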
UCH37 inh: blocks the human deubiquitinase UCH37; AID 588478; inhibition, % (test concentration not listed); purified proteasome/UCH37, Ub-AMC cleavage fluorescence; 330,000 tested, 0.33% active; Q9Y5K5;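 active = mean of two replicates above 20%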;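 note: 0% = compound-free wells with enzyme and 100% = wells lacking proteasome; stock transfer was 100 nL into about 20 µL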
Target sequence (Q9Y5K5 whole entry, looked up): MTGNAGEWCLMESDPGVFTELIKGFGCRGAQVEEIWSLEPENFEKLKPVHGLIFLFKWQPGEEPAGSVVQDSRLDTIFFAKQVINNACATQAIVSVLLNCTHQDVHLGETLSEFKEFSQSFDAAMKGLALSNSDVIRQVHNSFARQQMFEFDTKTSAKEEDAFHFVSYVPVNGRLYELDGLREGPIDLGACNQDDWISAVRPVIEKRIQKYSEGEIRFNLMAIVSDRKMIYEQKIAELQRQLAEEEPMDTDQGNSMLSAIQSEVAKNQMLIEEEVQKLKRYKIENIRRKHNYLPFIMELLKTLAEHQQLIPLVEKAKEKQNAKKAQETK
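Schedule: 30 min plus 25 min, room temperature / Material: human UCH37 within purified proteasomes / Technique: AMC fluorescence intensity at 355/460 nm / Buffer or medium: pH 7.4 Tris-HCl (50 mM) with ovalbumin, ATP-MgCl2, DTT / Controls: wells without proteasome as full block, compound-free enzyme plus substrate as uninhibited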
RanGTP-Impb inh: inhibitors of RanGTP-importin-beta interaction, primary screen, biochemical, FRET, CFP-Ran, YFP-importin-beta, homogeneous. cell-free CFP-Ran/YFP-importin-beta FRET ratio. inhibition, % (test concentration not listed). 300,000 tested, 1.1% active;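 active = most replicates above 15%; inconclusive = exactly half above 15%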;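 note: 0% = DMSO wells and 100% = Ran loaded with GDP instead of GTP; wells of about 40 µL received 100 nL stock; the first replicate is given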
Vif A3G: inhibitors of Vif binding to APOBEC3G peptide, primary screen, biochemical, TR-FRET, GST-Vif 1-94, biotin-A3G peptide, dose response retest (AID 1117319); one-dose inhibition, %; IC50 in µM for titrated hits; TR-FRET GST-Vif / biotin-A3G peptide binding; higher % means a stronger effect; test concentration not given here; strong numbers were not always called active; 260,000 tested, 0.57% active;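 active = above the screen mean plus three standard deviations and confirmed in dose response; inconclusive = results disagree or hit not tested in dose response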;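 note: Vif residues 1-94 fused to GST binding biotinylated APOBEC3G peptide 110-148; 0% = full assay without inhibitor and 100% = GST in place of GST-Vif; retest series ran down from 100 µM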
* = called active by the depositor; i = inactive; ? = inconclusive; · = no result given. A portion of the library. The share of hits here may be higher or lower than overall.

SMILES	HNF4A DNA FP	FGF22 binding	Ecoli growth	AF4-AF9 inh	UCH37 inh	RanGTP-Impb inh	Vif A3G
Cc1ccc(S(=O)(=O)N(CC(=O)NCc2ccncc2)C2CCCCC2)cc1	1.9	·	0.73	·	0.7	-2.9	10%
O=C(c1ccco1)N1CCN=C1SCc1cccc(Cl)c1	-2.6	i	0.76	-2.6	2.8	5.6	79%
CC1CC(C)CN(C(=O)/C=C/c2ccc([N+](=O)[O-])s2)C1 (stereo unspecified)	-1.3	i	0.68	11	6.1	-1.2	8%
COc1ccc(N2C(=NC(=O)CCC3CCCC3)SC3CS(=O)(=O)CC32)cc1 (stereo unspecified)	2.2	i	0.75	-1.0	2.7	-3.5	2%
Cc1ccc(C(=O)O)cc1N1C(=O)CCCC1=O	-2.3	i	0.73	0.3	-1.4	4.6	3%
CCOc1ccc(-c2[nH]ncc2Oc2ccccc2OC)c(O)c1	-1.2	·	0.66	·	-0.7	-7.2	2%
CCOC(=O)c1c(NC(=O)CCC(=O)O)sc2c1CCCCC2	3.7	i	0.64	-8.1	5.5	0.1	-7%
c1ccc(-c2ccc3c(n2)CCCO3)cc1	-0.8	·	0.67	·	5.2	-2.0	·
O=c1cc(-c2ccccc2)nc2cc(-c3ccc(F)cc3)[nH]n12	1.6	i	0.68	0.4	-63	-1.0	·
CC(=O)Nc1ccc(OCC(O)Cn2nc(C)c(C(C)=O)c2C)cc1 (stereo unspecified)	1.4	·	0.64	·	0.4	4.5	1%
COn1c(SCc2ccc(C)cc2C)nc2ccccc2c1=O	-1.4	·	0.74	·	-0.1	0.6	24%
Cc1ccc(NC(=O)COC(=O)CN2C(=O)c3ccccc3C2=O)cc1	-1.9	i	0.69	-2.4	1.2	·	3%
CCc1c(O)nc(SCC(=O)NC(C)(C)C)n(-c2ccccc2)c1=O	3.2	·	0.75	·	0.8	-3.1	14%
O=C(CSc1nccc(=O)[nH]1)c1cc2ccccc2o1	8.7	i	·	-0.1	·	1.4	?
CCCCN1C[C@H](C)[C@@H](CC(=O)NC)C1=O	0.4	i	·	-0.5	·	·	·
O=C(c1ccccc1N1CCOCC1)N1CCCC(Nc2ccc(F)cc2)C1 (stereo unspecified)	16	i	0.7	-0.8	0.3	-0.1	·
Oc1[nH]c2ccc(Br)cc2c1N=Nc1ccc(F)cc1	-90	i	0.67	0.7	3.0	0.6	·
Cc1ccc(/C=C/C(=O)Nc2ccc(N(C)C)cc2)o1	3.6	·	0.65	·	11	?	·
COc1ccc(Br)c2oc(SC)cc(=O)c12	0.0	i	0.68	1.0	-3.0	1.1	6%
Cc1ccc(SCC(=O)Nc2ccc(F)cc2[N+](=O)[O-])cc1C	3.6	i	0.72	-0.2	2.3	4.2	9%
COc1cccc(C(=O)Nc2ccc(S(=O)(=O)Nc3onc(C)c3C)cc2)c1	0.2	·	0.65	·	6.1	3.1	1%
N[C@@H](Cc1ccc(F)cc1)C(=O)O	-1.1	i	·	2.0	·	·	·
CCOC(=O)Cn1nc(C)n(-c2ccc(Br)cc2)c1=O	-5.2	i	0.65	-12	0.5	1.1	-9%
COc1cc(OC)cc(C(=O)NC(C(=O)NNC(=O)CN(C)S(=O)(=O)c2ccc(C)cc2)C(C)C)c1 (stereo unspecified)	3.3	i	0.7	-1.5	3.0	·	·
COc1ccc(C2C(C(C)=O)=C(O)C(=O)N2c2ccc(C)cc2)cc1 (stereo unspecified)	0.5	i	0.66	-3.0	5.1	?	-7%

(further entries)
SMILES	HNF4A DNA FP	FGF22 binding	Ecoli growth	AF4-AF9 inh	UCH37 inh	RanGTP-Impb inh	Vif A3G
CSc1ccc(N2CCN(CCCNC(=O)Nc3ccccc3F)CC2)cc1	4.2	·	0.65	·	0.6	-1.7	2%
COc1ccc(NS(=O)(=O)c2cc(NC(=O)[C@@H](NC(N)=O)C(C)C)ccc2C)cc1	0.5	i	0.71	2.0	0.9	0.2	·
Cc1ccc(OCCSc2nnc(NC(=O)c3ccco3)s2)cc1	2.1	·	0.79	·	-1.7	2.7	-3%
O=C(Nc1cccc(-n2cnnn2)c1)c1ccco1	3.4	·	0.72	·	0.6	0.6	0%
CC(C)(Oc1ccc(Cl)cc1)C(=O)OCC(=O)NCCc1ccc(S(N)(=O)=O)cc1	-0.1	i	0.67	0.1	-0.3	·	2%
Cc1noc(C)c1S(=O)(=O)N1CCN(c2ccccc2)CC1	0.8	i	0.67	-19	0.5	-2.8	-3%
Cc1ccc(C)c(SCC(=O)Nc2oc(C)c3c(C)n[nH]c(=O)c23)c1	-0.1	i	0.65	-4.6	4.6	-2.1	-1%
C/C(=N\NC(=O)COc1ccc(C)cc1[N+](=O)[O-])c1cccs1	-0.4	i	·	-0.7	·	-2.2	4%
Cc1ccc(NC(=O)CN2CCOCC2)cc1	3.7	i	0.64	-1.5	1.1	-2.3	1%
COC(=O)Cc1csc(NC(=O)c2ccc3ncsc3c2)n1	8.7	i	0.69	-2.1	0.0	·	·
CC1=C(C(=O)N(C(C)C)C(C)C)CC(CC(=O)NC(c2ccccc2)c2ccccc2)C(=O)N1Cc1ccc(C(C)(C)C)cc1 (stereo unspecified)	-1.5	i	·	-6.1	·	·	·
COc1ccc(C2C(C(=O)Nc3ccccc3OC)=C(C)Nc3ncnn32)cc1 (stereo unspecified)	0.1	i	0.73	0.6	1.0	3.9	5%
N#Cc1c(-c2ccccc2)cc(C2CC2)nc1SCC(=O)c1cccs1	0.7	·	0.74	·	6.6	4.0	-12%
CC1=CC(C)(C)NC(=S)N1c1ccc(C)cc1C	-0.7	i	0.74	-1.1	1.0	-0.8	·
Cc1ccc(NC(=O)CNS(=O)(=O)c2cccs2)cc1F	12	·	0.65	·	5.3	4.5	10%
O=C(O)C1CCCCN1C(=O)c1ccc(S(=O)(=O)N2CCCC2)cc1 (stereo unspecified)	0.1	i	0.63	-2.0	4.1	·	-10%
CC(C)(c1ccccc1)c1ccc(OCCn2cnc3ccccc3c2=O)cc1	-2.7	·	0.74	·	1.9	-2.0	9%
CCN1C(C)=C(C)S/C1=C1\SC(=S)N(N)C1=O	-0.2	i	0.7	-1.3	0.3	3.8	7%
COc1ccc(/C=C/C(=O)N(C)C2CCS(=O)(=O)C2)cc1 (stereo unspecified)	-1.2	i	0.71	-1.5	6.5	0.4	-8%
CC(=O)Nc1ccc(C(=O)Nc2ccc(S(=O)(=O)Nc3nccc(C)n3)cc2)cc1	6.7	i	0.68	-4.2	2.4	-2.9	·
CCCCNC(=O)CN1CCN(Cc2ccc3cc(OC)ccc3c2)CC1	-0.3	i	0.61	-2.4	3.0	1.2	-11%
Cc1cc(OCc2cc3c(cc2Cl)OCO3)c2c(C)cc(=O)oc2c1	3.0	·	0.72	-0.7	4.1	8.4	-3%
Cc1cc(C)c2nc(N3CCC(C(=O)NCC4CCCO4)CC3)sc2c1 (stereo unspecified)	-0.6	i	0.67	-1.7	2.0	2.6	30%
CCOc1ccc2c(c1)C(C)=CC(C)(C)N2S(=O)(=O)c1ccc(C)cc1	-2.1	·	0.73	1.3	0.7	-0.9	·
CCOC(=O)c1nn(-c2ccccc2)c(C(=O)OCC)c1N	4.8	i	0.66	2.4	i	5.8	3%

Going on with the list:
SMILES	HNF4A DNA FP	FGF22 binding	Ecoli growth	AF4-AF9 inh	UCH37 inh	RanGTP-Impb inh	Vif A3G
CN1CCN(C(=O)Nc2ccc3c(c2)N(C)C(=O)c2ccccc2S3)CC1	-6.5	i	0.73	-1.1	1.4	0.2	2%
O=C(Nc1ccccc1)C1=C[C@@H](c2ccc(Br)cc2)C[C@@H](OCCCCO)O1	-0.7	i	·	0.9	4.5	-2.2	·
O=C(Nc1cccc(O)c1)c1cccc(S(=O)(=O)N2CCCC2)c1	3.6	·	0.71	·	-1.4	-3.0	-8%
O=C(COC(=O)c1ccccc1C(=O)c1ccc(Cl)cc1)NCc1ccccc1	1.7	i	0.69	-8.6	3.4	5.2	14%
O=C1NC(c2ccccc2)=NC1(NS(=O)(=O)c1ccccc1)C(F)(F)F (stereo unspecified)	3.3	·	0.77	·	1.1	-0.7	3%
CCN(CC)CCCN=C1N[C@@H](c2cccc(C(F)(F)F)c2)C(C(=O)OC)=C(C)N1CC	-0.9	i	·	-0.1	3.8	·	·
C[C@@H](CSc1ccc(Br)cc1)CN1CC[C@H](C(C)(C)C)CCC1=O	-2.0	i	·	1.3	4.3	·	·
COC(=O)C1=C(C)N(CC2CC2)C(=O)N[C@H]1c1ccc(Br)cc1	·	i	·	4.7	6.4	·	-2%
Fc1cccc(NC(=S)NCc2ccc(Cl)cc2)c1	-1.2	i	0.6	-1.2	2.4	5.5	-3%
O=C(/C=C/c1ccc(N2CCCCC2)c([N+](=O)[O-])c1)c1ccc(S(=O)(=O)N2CCCC2)cc1	-3.1	i	0.72	-0.2	5.1	2.4	·
CC1(NC(=S)Nc2ccc(NC(=S)NC3(C)CCS(=O)(=O)C3)cc2)CCS(=O)(=O)C1 (stereo unspecified)	0.8	i	0.6	2.9	1.7	0.1	-5%
Cn1c(=O)n(C)c2cc(NS(=O)(=O)c3ccc(C(C)(C)C)cc3)ccc21	1.6	i	0.7	0.2	1.8	-2.2	14%
CNC(=O)Nc1cccc2cccnc12	-1.0	i	0.64	-4.2	3.7	-1.9	29%
CC(C)CCN1NC2(CCC(C)CC2)NC1=S (stereo unspecified)	-4.2	i	0.67	0.0	5.8	0.0	-5%
COC(CNC(=O)C(=O)Nc1cc2c3c(c1)CCN3C(=O)CC2)OC	4.5	i	0.7	-1.4	7.7	2.4	·
CN1CCN(c2ccc(NS(=O)(=O)c3ccc(Cl)cc3)cn2)CC1	-1.3	i	0.66	3.0	7.1	-20	-4%
CCOC(=O)CSc1nc2sc3c(c2c(=O)n1-c1ccccc1)CCN(C(C)C)C3	5.1	i	0.65	2.9	-170	1.2	8%
CNc1nc(Cl)nc2ncn(C)c12	7.4	i	0.71	-3.4	1.1	·	-7%
Cc1cc(C)n(CC(C)NC(=O)c2cc(COc3ccc(F)c(F)c3)on2)n1 (stereo unspecified)	-0.8	i	0.71	0.7	1.4	-4.4	·
CCOC(=O)c1cnc(-n2nc(C)cc2C)nc1NC	2.0	·	0.68	·	-24	1.4	-3%
CC1CCN(CCc2nc3cc(NS(=O)(=O)c4ccc(F)cc4)ccc3n2C)CC1	1.1	·	0.71	·	3.7	3.0	1%
CC(C)C[C@@H](CNCC(=O)[C@H](Cc1ccccc1)NC(=O)c1[nH]cnc1C(=O)N[C@@H](C)CN)NC(=O)c1nc[nH]c1C(=O)N[C@@H](CC(=O)O)C(=O)O	1.6	i	·	1.9	·	·	-4%
CC(=O)Nc1cc(Cl)c(N=Cc2ccc(O)cc2O)cc1Cl	1.7	i	0.66	-0.4	2.3	-0.3	23%
CC(=O)NS(=O)(=O)c1ccc(NC(=O)c2ccccc2F)cc1	1.3	·	0.7	·	3.6	4.4	2%
CC(OC(=O)c1ccc([N+](=O)[O-])o1)C(=O)Nc1nc(-c2ccc(F)c(F)c2)cs1 (stereo unspecified)	0.7	i	0.62	14	2.0	·	1%

Some entries already given, showing only Ecoli growth:
SMILES | Ecoli growth
CCOC(=O)c1c(NC(=O)CCC(=O)O)sc2c1CCCCC2 | 0.64
c1ccc(-c2ccc3c(n2)CCCO3)cc1 | 0.67
